# VDR inh – vitamin D3 receptor (human) inhibition; AID 504847; Potency, µM, without a hit: max response, negative = inhibition, actives largely listed as inhibitors; VDR-SRC2-3 peptide fluorescence polarization, 2 h; hit rate 0.93% among 400,000; P11473; active means well fitted inhibition curve with a large enough effect; inconclusive means small, poorly fitted or top-dose-only effect, or another doubt; inactive means no such curve, though single readings can be large or run the other way; further: series mostly up to about 120 µM
# Target sequence (P11473 whole entry, looked up): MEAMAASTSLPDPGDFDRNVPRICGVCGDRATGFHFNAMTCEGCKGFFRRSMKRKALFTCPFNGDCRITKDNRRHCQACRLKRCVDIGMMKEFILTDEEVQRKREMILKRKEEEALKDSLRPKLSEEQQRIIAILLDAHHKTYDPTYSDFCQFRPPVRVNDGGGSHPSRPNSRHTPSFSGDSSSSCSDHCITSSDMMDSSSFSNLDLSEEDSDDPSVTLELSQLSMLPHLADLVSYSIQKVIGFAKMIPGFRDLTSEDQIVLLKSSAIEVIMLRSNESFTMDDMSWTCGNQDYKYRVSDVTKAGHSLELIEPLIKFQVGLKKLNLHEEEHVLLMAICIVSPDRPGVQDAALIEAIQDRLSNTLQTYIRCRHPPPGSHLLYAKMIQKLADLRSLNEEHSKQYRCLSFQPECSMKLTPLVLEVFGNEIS
#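 The screen uses fluorescence polarization to detect compounds that interfere with recruitment of the SRC2-3 coactivator peptide to VDR; plates are read after 2 h at room temperature.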
# An asterisk follows results filed as active; ? = inconclusive; & = joins results of further samples. On the % scale 0 is the no-effect control and ±100 the full control effect; potency means the concentration at half of the fitted maximal effect.
VDR inh	molecule
-3%	NS(=O)(=O)c1ccc(CCNC(=O)CSc2nc3ccccc3c(=O)n2CCC(=O)N2CCCCC2)cc1
-1%	CCCCN(C)CCNC(=O)c1c2c(nc3ccccc13)C(=O)N(C1CCCCC1)C2
-3%	O=c1c(/C=C(\O)c2ccccc2)nc2ccccc2n1-c1ccccc1
-14%	CCC(=O)c1ccccc1OCC(=O)Nc1c(C)cccc1C
-14%	c1coc(-c2nc3ccccc3s2)c1
23%	COc1cccc(C(=O)Nc2ccc3nc4n(c(=O)c3c2)CCCCC4)c1
-14%	O=C(c1cccs1)N(c1ccc(F)cc1)C1C=CS(=O)(=O)C1 (centres undefined)
11%	O=c1cc2nc(-c3ccccc3)nc(SCCOc3ccc(Cl)cc3)n2[nH]1
13%	CCc1ccc(OCC(=O)NNC(=O)c2cc(S(=O)(=O)N(C)C)ccc2N2CCCC2)cc1
-9%	Cc1cc(-c2nnc(CCC(=O)NCc3ccc(OC(F)(F)F)cc3)o2)no1
-7%	O=C(COc1ccc([N+](=O)[O-])cc1)NNC(=O)c1cccs1
14%	C/C(=N\NC(=O)CNC(=O)c1cccc(F)c1)c1ccc2ccccc2c1
9%	Cc1ccc(CONC(=O)c2ccc([N+](=O)[O-])cc2)cc1
-9%	CC(C)(C)OC(=O)CNC(=O)c1nc[nH]c1C(=O)NCc1ccc(CNC(=O)OC(C)(C)C)cc1
1%	COC(=O)c1cc(C(=O)OC)cc(-n2c(C)cc(C(=O)COC(=O)CNS(=O)(=O)c3ccc(C)cc3)c2C)c1
-3%	CCN(CC)CCCC(C)NC(=O)c1cccc(S(=O)(=O)N2CCc3ccccc32)c1 (centres undefined)
10%	O=c1c2ccccc2nc(-c2ccc(Br)cc2)n1Cc1ccccc1
-14%	COc1cc(OC)c(/C=N/n2c(C3CCCCC3)n[nH]c2=S)c(OC)c1
-25%	CCOc1ccccc1NC(=O)CSc1nc2c(c(=O)n1C)SC(C)C2 (centres undefined)
-14%	Cc1cccc(NCc2ccc(O)c3ncccc23)c1
-10%	CCNC(=S)N/N=C/c1ccco1
5%	Cc1ccc(-c2cn3cccnc3n2)cc1
1%	CCOC(=O)Cn1nc(C)c(NC(=O)COc2ccc(Cl)cc2C)c1C
-6%	FC(F)(F)c1nnc2sc(-c3ccccn3)nn12
-9%	CCOc1cccc(-c2nc(C(N)=O)c3[nH]c(=O)n(-c4cccc(Cl)c4)c3n2)c1O

# In the list so far, these contain an aryl thioether with sulfur outside any ring:
VDR inh	molecule
-3%	NS(=O)(=O)c1ccc(CCNC(=O)CSc2nc3ccccc3c(=O)n2CCC(=O)N2CCCCC2)cc1
11%	O=c1cc2nc(-c3ccccc3)nc(SCCOc3ccc(Cl)cc3)n2[nH]1
-25%	CCOc1ccccc1NC(=O)CSc1nc2c(c(=O)n1C)SC(C)C2 (centres undefined)

# New compounds follow.
VDR inh	molecule
-17%	CN(C)C(CNC(=O)c1cccs1)c1cccnc1 (centres undefined)
?	Cc1ccccc1-n1c(SCC(=O)Nc2ccccc2)nc2nc3c(cc2c1=O)CCCC3
9%	O=C(c1cc2cc(Br)cc(Br)c2oc1=O)N1CCOCC1
10%	COc1ccccc1CCC(=O)OCC(=O)Nc1c(C)nn(-c2ccccc2)c1C
?	COc1ccc(OC)c(-n2c(=S)[nH]c3c(sc(=S)n3-c3ccccc3C)c2=O)c1
?	CCN(CC)S(=O)(=O)c1ccc(N2CCCCC2)c(C(=O)Nc2ccccc2N2CCOCC2)c1
13%	CCc1sc(C(=O)N2CCN(S(C)(=O)=O)CC2)cc1Br
-6%	COc1ccc(N2C(=O)CSC2c2ccccc2F)c(OC)c1 (centres undefined)
2%	Cc1cc(C(F)F)nn1CC(=O)Nc1cc([N+](=O)[O-])ccc1F
?	COC(=O)c1ccc(CSC2=NCCS2)cc1
?	CCCS(=O)(=O)c1nnnn1-c1cccc(OC)c1
7%	c1ccc(-c2cn3c(n2)SCC3)cc1
7%	Cc1nn(-c2ccc(C(=O)O)cc2)c(N)c1-c1ccccc1
-1%	Cc1cccc(C)c1NC(=O)N1CCC(n2cnc3ccccc32)CC1
-16%	COC(=O)C(NC(=O)COc1ccccc1)(Nc1nc2c(s1)CCCC2)C(F)(F)F (centres undefined)
1%	Cc1ccc(S(=O)(=O)Nc2cc(C(C)C)c(O)cc2C)cc1
-13%	O=C(c1ccc(CS(=O)(=O)c2c(Cl)cccc2Cl)o1)N1CCN(c2ccccc2)CC1
-11%	Cc1ccc(S(=O)(=O)N(C)CCCC(=O)N2CCCCC2)cc1
7%	Cc1c(NC(=O)CN2C(=O)c3ccccc3C2=O)c(=O)n(-c2ccccc2)n1C
11%	CN(Cc1ccccc1)S(=O)(=O)c1cc(Br)cc2c1N(C(=O)C1CC1)CC2
-12%	Cc1c(N=Cc2ccc(O)c(Br)c2)cccc1[N+](=O)[O-]
-1%	COc1ccc(NC(=S)c2ccc(N(C)C)cc2)cc1
-28%	O=C1S/C(=C\c2ccc(O)c([N+](=O)[O-])c2)C(=O)N1Cc1cccc([N+](=O)[O-])c1
-21%	O=C(Nc1ccc2c(c1)OCCO2)c1ccc2ccccc2n1
2%	O=C(c1cc(-c2ccc(Cl)cc2)n[nH]1)N1CCN(C(=O)c2ccco2)CC1
20%	Cc1cccc(C(=O)NCCC(=O)NCc2ccccc2F)c1
3%	CCN(CC)C(=O)CSc1nc2ncc(Cl)cc2[nH]1
8%	COC(=O)C1CSC(C(=O)OC)N1C(=O)CN1CCN(c2ccccc2)CC1 (centres undefined)
-6%	O=C(Nc1ncc(Cc2cccc(Cl)c2)s1)c1ccc([N+](=O)[O-])cc1
13%	COc1cc(CC(=O)OCC(=O)c2ccc3c(c2)OCCO3)cc(OC)c1OC
0%	COc1cc(OC)cc(C(=O)NNC(=O)c2ccc(S(=O)(=O)N3CC(C)OC(C)C3)cc2)c1 (centres undefined)
-4%	CCc1cc(/C(Cc2ccc3ccccc3n2)=N\O)c(O)cc1O
-18%	S=C(c1c[nH]c2ccccc12)N1CCCC1
-8%	CCn1c(C)c(C(C)=O)c(N2CCN(c3ccccn3)CC2)nc1=S
23%	Cc1c(Cl)cccc1NC(=O)Nn1cnnc1
6%	O=C(c1nn2c(C(F)(F)F)cc(-c3cccs3)nc2c1Br)N1CCCc2ccccc21
7%	CS(=O)(=O)Nc1ccc(S(=O)(=O)N2CCCC2)cc1
-9%	O=C(COC(=O)c1ncc(Cl)c(Cl)c1Cl)Nc1ccccc1OC(F)F
-12%	CN(CC(=O)Nc1ccccc1Br)C(=O)c1ccccc1OCc1ccc(Cl)cc1
-8%	CSCCC(NS(=O)(=O)c1cccc(C(F)(F)F)c1)C(=O)N(C)Cc1ccc2c(c1)OCCO2 (centres undefined)
18%	COc1ccc(-n2c(=O)c3c(c4cc(OC)ccc4n3C)n(Cc3cccc(OC)c3)c2=O)cc1
-11%	COc1ccc(/C=N/Nc2nc(-c3cccc(S(=O)(=O)N4CCCC4)c3)cs2)c(OC)c1
19%	O=C(c1cn(CC(=O)N2CCCCC2)c2ccccc12)C1CC1
12%	Cc1ccc(N(C(C)C(=O)N2CCCCC2)S(C)(=O)=O)cc1C (centres undefined)
-9%	C[C@H](CO)N1C[C@H](C)[C@@H](CN(C)Cc2ccccc2)Oc2c(NC(=O)C3CC3)cccc2C1=O
-3%	Cc1ccc(-n2nc3c(=O)n(CC(=O)NCc4ccccn4)nc(C)c3c2C)cc1
-1%	CCc1sc(C(=O)Nc2ccccc2N2CCOCC2)cc1C
-10%	COc1ccc(NC(=O)c2ccc(NC(=O)CN3CCN(c4ccccc4)CC3)cc2)cc1
-15%	OCCN1CCN(c2nc(NCc3ccco3)c3ccccc3n2)CC1
12%	Cc1ccc(C(=O)N/C(=C\c2cccs2)C(=O)NC2CCCCC2)cc1

# Reformatted as comma-separated lines: entries from further up.
mol,VDR inh
CCN(CC)C(=O)CSc1nc2ncc(Cl)cc2[nH]1,3%
CCc1sc(C(=O)Nc2ccccc2N2CCOCC2)cc1C,-1%

# Seven compounds picked at random from those above:
VDR inh	molecule
-1%	CCc1sc(C(=O)Nc2ccccc2N2CCOCC2)cc1C
-10%	COc1ccc(NC(=O)c2ccc(NC(=O)CN3CCN(c4ccccc4)CC3)cc2)cc1
20%	Cc1cccc(C(=O)NCCC(=O)NCc2ccccc2F)c1
-8%	CSCCC(NS(=O)(=O)c1cccc(C(F)(F)F)c1)C(=O)N(C)Cc1ccc2c(c1)OCCO2 (centres undefined)
6%	O=C(c1nn2c(C(F)(F)F)cc(-c3cccs3)nc2c1Br)N1CCCc2ccccc21
-9%	C[C@H](CO)N1C[C@H](C)[C@@H](CN(C)Cc2ccccc2)Oc2c(NC(=O)C3CC3)cccc2C1=O
23%	Cc1c(Cl)cccc1NC(=O)Nn1cnnc1

# (continued)
VDR inh	molecule
-15%	CCCN1CCN(CCCNC(=O)C(CC)n2nc(C)c3sc4ccccc4c3c2=O)CC1 (centres undefined)
-17%	O=c1c2sc3ccccc3c2n(Cc2cccc(Cl)c2)c(=O)n1Cc1ccc(F)cc1
24%	CC(=O)c1cccc(NC=C2C(=O)OC3(CCCCC3)OC2=O)c1
-9%	Cc1cccc(C(=O)NC(CC(=O)O)c2ccc(OC3CCCC3)cc2)c1[N+](=O)[O-] (centres undefined)
-9%	COC(=O)C1=C(N)Oc2cc(C)n(Cc3cccnc3)c(=O)c2C1c1ccc(OC)c(OC)c1 (centres undefined)
-6%&4%	CC(C)C[C@H](NC(=O)N1CCCCCC1)C(=O)N[C@H](Cc1cn(C)c2ccccc12)C(=O)N[C@H](Cc1ccccn1)C(=O)O
2%	CC(=O)c1ccc2c(c1)OCCOCCOCCOCCOCCO2
9%	Cc1sc2ncn3cnnc3c2c1C
-5%	N#Cc1ccc(-c2csc(-c3ccno3)n2)cc1
3%	O=C(CCc1ccccc1)N/N=C/c1cc(Br)ccc1O
-1%	C/C(=N\NC(=O)CC1N=C(Cc2ccccc2)NNC1=O)c1ccc(Br)cc1 (centres undefined)
5%	CS(=O)(=O)N(CCc1ccccc1)CC(=O)NCc1ccccc1
24%	Cc1cc(=O)c2cc(C(=O)Nc3ccc(F)cc3)ccc2[nH]1
-7%	COc1ccc(-c2csc(Nc3ccc(C)cn3)n2)cc1
?	Cc1cccc(CC(=O)NCC(=O)NCc2cc(=O)n(C)c(=O)n2C)c1
-6%	C=CCc1c(O)c(CC)cc2c(C)cc(=O)oc12
4%	CCCc1nc2ccccc2c(C(=O)OCC(=O)Nc2cccc(S(=O)(=O)N3CCOCC3)c2)c1CC
-1%	Cc1cccc(-c2nnc(SCC(=O)N3CCCC3)o2)c1
-15%	CC(OC(=O)CCN=C1NS(=O)(=O)c2ccccc21)C(=O)NCc1ccccc1 (centres undefined)
3%	CC[C@H](C)C(N)c1cn(C(CCCN=C(N)N)C(=O)N2CCNCC2)nn1 (some centres undefined)
5%	COc1cccc2sc(N(CCCN(C)C)C(=O)c3ccc(S(=O)(=O)N4CCCc5ccccc54)cc3)nc12
-14%	O=C(NCC1CCCN(Cc2nccs2)C1)c1cccc2ccccc12 (centres undefined)
-15%	Cc1cccn2c(=O)c(/C=C(\C#N)C(=O)NCc3ccco3)c(N3CCCCC3)nc12
-7%	COc1ccc(OC)c(S(=O)(=O)NCCCc2ccccc2)c1
3%	COc1ccccc1-c1nc(-c2ccc(C(=O)O)cc2)no1
-11%	O=C(COC(=O)c1cccc(C(=O)OCC(=O)NC2CCCCC2)n1)NC1CCCCC1
-16%	O=c1c2c(nc3cc(-c4ccc(Cl)cc4)[nH]n13)CCS2
12%	CCOC(=O)c1[nH]c(C)c(CCC(=O)NCc2ccc(OC)cc2)c1C
4%	COc1ccc(S(=O)(=O)N2CCN(C(=O)C3COc4ccccc4O3)CC2)cc1 (centres undefined)
-3%	NC(=O)CN(c1ccc(Oc2ccccc2)cc1)S(=O)(=O)c1ccccc1
-8%	O=C1C2C3CC(C2C(=O)N1c1cccc(Cl)c1)[C@H](O)C3O (some centres undefined)
-1%&2%	CC(C)CCN(C(=O)Nc1ccccc1)C(C)c1cccs1 (centres undefined)
-6%	Cc1cc(C)cc(-n2ccnc2SCC(=O)Nc2ccc3c(c2)OCO3)c1
-29%	CCOC(=O)N(Cc1ccccc1)Cc1ccc(C(=O)N[C@@H](Cc2ccccc2)C(=O)O)cc1
19%	O=[N+]([O-])c1cccc2c(N3CCOCC3)ccnc12
7%	CCCCCCOc1ccc(C2C(=O)N(C3CCCCC3)CC(=O)N2CCC)cc1 (centres undefined)
16%	CCS(=O)(=O)N1CCN(C(=O)c2ccccc2[N+](=O)[O-])CC1
-7%	CCOc1ccc2nc(NC(=O)/C=C/c3ccc4c(c3)OCO4)sc2c1
-9%	Cc1ccc(S(=O)(=O)n2cnc3ccccc32)c(C)c1
6%	COc1ccc(N/C=C(\C#N)c2ccc(OCCCF)cc2)cc1
-27%	COc1ccc(C2CC(c3ccc(Cl)c(Cl)c3)Nc3nc(N)nn32)cc1 (centres undefined)
-6%	CN(C(=O)COC(=O)c1c2c(nc3ccccc13)/C(=C/c1cccc([N+](=O)[O-])c1)CCC2)C1CCS(=O)(=O)C1 (centres undefined)
-10%	CS(=O)(=O)c1ccc(Cl)c(NC(=O)COC(=O)CNC(=O)c2cccs2)c1
-5%	COc1ccc(C(=O)Nc2cc(C)on2)cc1S(=O)(=O)N1CC(c2ccccc2)CC1=O (centres undefined)
-1%	Cc1ccc(N2C(=O)NC(NC(=O)C3CC3)(C(F)(F)F)C2=O)cc1 (centres undefined)
-8%	COc1ccccc1C(=O)Nc1cccc(C(=O)OCc2cc(=O)n3nc(C)sc3n2)c1
-18%	CC(OC(=O)CC1CCCC1)C(=O)Nc1ccc(Cl)cn1 (centres undefined)
?	c1ccc(C(c2ccccc2)N2CC3(CCNCC3)C2)cc1
-10%	Cc1csc(NC(=O)C2CCN(S(=O)(=O)c3cccs3)CC2)n1
3%	O=S(=O)(NCC1CCCO1)c1cnc(Cl)c(Br)c1 (centres undefined)

# These rows are one share of the data; count on the stated rates, not on these rows.
